HSD17B inh – blocks hydroxysteroid 17-beta dehydrogenase activity | Q99714 | recombinant HSD17B10, NADH fluorescence kinetic; many of its hits are not listed in these tables | Potency, µM (titrated, usually from 57.1 µM), inactives show at the highest dose activity change, negative = inhibition, hits mostly inhibitors | hit rate 7.6% among 75,000 | AID 893; active = well fitted inhibition curve with a large enough effect; inconclusive = small, poorly fitted or top-dose-only effect; inactive = no such curve, though single readings can be large or run the other way;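 also: the protocol describes HADH2 (HSD17B10) and not the HSD17B4 of the title; nearly all actives have a fitted effect of over 70% in size; most hits overshoot -100% by far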
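20 nM HADH2, pH 9.0 Tris/Tween; cpd preinc 15 min RT; start w/ 1 mM NAD+ + 90 uM b-hydroxybutyryl-CoA; kinetic fluor ex360/em450 q30s x 4 min; delta last-first.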
The depositor's hits bear a star; u = inconclusive; [ ] = remark or other dose. % is scaled to controls: 0 for no effect and ±100 for the full control effect; potency is read from the fitted curve at half-maximal effect.

Structure,HSD17B inh
CCN(CCCNC(=O)CC(C(=O)N1CCc2ccccc21)n1ccnc1)c1cccc(C)c1 (stereo not drawn),-13%
c1cncc(-c2nc(-c3cccs3)cs2)c1,u
O=C(c1ccccc1)c1nc2ccccc2[nH]c1=O,3%
Cn1c(=O)n(CC(=O)Nc2ccc(F)cc2)c2ccccc21,0%
Cc1ccc(C2NC(=O)c3ccccc3N2)s1 (stereo not drawn),20µM*
O=C(Nn1c(C2CC2)nc2ccccc2c1=O)c1ccco1,3%
Cc1noc(C)c1COC(=O)Cn1c(C)nc2ccccc21,-5%
O=C(c1ccc(F)cc1)N1CCC(O)(c2cccnc2)CC1,6%
O=C(CCN1C(=O)C2C3C=CC(C3)C2C1=O)Nc1ccccn1 (stereo not drawn),8%
CC1=C(C(=O)Nc2ccccc2)C(c2ccco2)C(C#N)=C(SCc2ccccc2)N1 (stereo not drawn),u

(continued)
Structure,HSD17B inh
Cc1cc(N2CCCCC2)n2ncc(-c3ccccc3)c2n1,u
COc1cccc(-c2cncnc2NCc2ccc(OC)cc2OC)c1,-9%
CCCCOc1ccc(NC(=O)CSc2nnnn2C)cc1,-4%
Cc1ccccc1CS(=O)(=O)Cc1ccc(C(=O)NCC2CCCO2)o1 (stereo not drawn),-3%
CCCC(=O)Nc1cccc(-c2cn3ccsc3n2)c1,11%
COc1ccc(N2C(=O)CCC(C(=O)c3ccccc3)=C2C)cc1,-1%
Cc1noc(C)c1C(=O)N1CCC[C@@]2(CCN(C(=O)Nc3cccc(C#N)c3)C2)C1,-2%
Cn1c(Cn2c(=O)sc3ccccc32)nnc1SCC(=O)N1CCN(c2ccccc2)CC1,4%
COc1ccc(CCn2c(=N)c(C(=O)NCc3ccco3)cc3c(=O)n4cccc(C)c4nc32)cc1,u
Cc1cc(C(=O)NCc2cc(C)n(C)n2)sc1-c1ccccc1,25µM*

(continued)
Structure,HSD17B inh
COc1ccc(CCNc2oc(-c3ccccc3OC)nc2C#N)cc1OC,32µM*
CCc1cc2cc(C(=O)Nc3ccccc3F)sc2s1,-4%
COc1c(CC(=O)c2cc3c(cc2O)OC(C)(C)C(O)C3)ccc2c1C=CC(C)(C)O2 (stereo not drawn),3%
O=C(CCNc1cccc(C(F)(F)F)c1)c1ccco1,-11%
CCOc1cc(C(=O)Nc2nnc(C)s2)cc(OCC)c1OCC,3%
COc1ccc(OC(C)C(=O)N2CC(C)OC(C)C2)cc1 (stereo not drawn),10%
CCC(C)C(=O)Nc1nc2c(s1)C(=O)CC(C)(C)C2 (stereo not drawn),u
CCn1cc(C(=O)NCc2ccc(Cl)cc2)c(=O)c2cc(S(=O)(=O)N3CCOCC3)ccc21,-6%
CC(C)N(CCCNC(=O)CC1Oc2ccccc2NC1=O)Cc1ccccc1 (stereo not drawn),-5%
O=[N+]([O-])c1nccn1C[C@H](O)CN1CCCCC1,10%[11.4 µM]

The listing continues:
Structure,HSD17B inh
COc1ccccc1-c1nc(C#N)c(N2CCN(Cc3ccccc3)CC2)o1,25µM*
CCOc1cc(C2CC(=O)NC3=C2C(=O)C(C(=O)OC)C(C)C3)cc(Cl)c1O (stereo not drawn),-12%
CN(C)Cc1c[nH]c2nc[nH]c(=O)c12,5%[11.4 µM]
Cc1cc(NC(=O)CSc2nc3ccccc3n2CC(=O)N2CCCCC2)no1,-2%
COc1ccc2cc1Oc1ccc(cc1)CC1c3cc(c(OC)cc3CCN1C)Oc1c(OC)c(OC)cc3c1C(C2)N(C)CC3 (stereo not drawn),12%
CCOc1ccc(NC(=O)CN(C)CC(=O)NC2CCCc3ccccc32)cc1OCC (stereo not drawn),0%
COc1ccc(C(=O)Nc2ccccc2NC(=O)c2ccco2)cc1OC,-7%
CNC[C@H](O)c1cccc(O)c1,5%
CC(C)=CC1C(C(=O)O)C1(C)C (stereo not drawn),6%
CCC(CC)C(=O)Nc1cccc(-c2nc3ccccc3o2)c1,-18%

Further records.
Structure,HSD17B inh
COc1ccc(NC(=O)CCS(=O)(=O)c2cccc3nonc23)c(OC)c1,4%
O=C(Cn1nnc(-c2cccs2)n1)N1CCc2ccccc2C1,-1%
COc1ccc(C(=O)/C(C)=N/O)cc1OC,7%
COc1ccc(S(=O)(=O)N(CC(=O)NC2CC2)C2CCCCC2)cc1Cl,3%
CC(=O)c1ccc(N2C(=O)[C@@H]3C(CCC(N)=O)NC4(C(=O)Nc5c4ccc(Cl)c5C)[C@@H]3C2=O)cc1 (stereo partly drawn),6%
Oc1c(Cl)ccc(Cl)c1Cl,-5%
CCOC(=O)c1sc(NC(=O)CNC(=O)Cn2cnc3sc(C)c(C)c3c2=O)nc1C,13%
COc1cccc(Cn2c(=O)cnc3cnc(N4CCN(C)CC4)nc32)c1,u
Cc1ccc(C(=O)Nc2c3c(nn2C(C)(C)C)CS(=O)(=O)C3)cc1C,2%
O=C(CNS(=O)(=O)c1ccc(C(=O)N2CCOCC2)cc1)N1CCOCC1,1%

(list continues)
Structure,HSD17B inh
O=C1C=C(N2CCN(c3ccccn3)CC2)C(=O)c2c(O)ccc(O)c21,-6%[11.4 µM]
CC(CN1CCNCC1)(NS(=O)(=O)c1ccccc1)c1ccccc1 (stereo not drawn),4%
COc1ccc(C2=NO[C@@H]3C(=O)N(C4CCCCC4)C(=O)[C@H]23)cc1OC,12%
COc1cccc(-c2nc(Cc3ccc(OC)c(OC)c3)no2)c1,1%
O=S(=O)(O)c1cc(S(=O)(=O)O)c2c(N=Nc3cccc4ccccc34)c(O)ccc2c1,-13%[11.4 µM]
COc1ccc(Oc2nc(C)cc(C)c2C#N)cc1,2%
Cc1oc(-c2ccc(Cl)cc2)nc1CS(=O)CC(=O)NCCN1CCCC1 (stereo not drawn),9%
COCCNc1ccnc(-c2cccc(NS(C)(=O)=O)c2)n1,-16%
CCOC(=O)c1c(C)nc2c(c1C)/C(=N/O)CC(C)(C)C2,7%
O=C(NCc1ccccc1)c1ccc(F)c(S(=O)(=O)N2CCOCC2)c1,5%

New compounds follow.
Structure,HSD17B inh
O=C(NCCc1ccccc1)C1CCCN1C(=O)NCc1ccccc1 (stereo not drawn),11%
Cc1nc(SCC(=O)Nc2ccccc2)c2oc3ccccc3c2n1,12%
CCOC(=O)c1c(C)c(C(=O)NCCCOC(C)C)c(C)n1C,1%
COc1ccccc1CN(CC(=O)NCc1ccco1)C(=O)CNS(=O)(=O)c1ccccc1,-6%
CC(C)N(Cc1nnc(-c2ccccc2Cl)o1)C(=O)c1cccc(C#N)c1,4%
CNC(=O)c1ccc(N(Cc2ccccc2)S(C)(=O)=O)cc1,6%
CN(C(=O)c1cc2n(n1)C(C(F)(F)F)CC(c1ccco1)N2)c1ccc(OC(F)(F)F)cc1 (stereo not drawn),-9%
O=C(OC(C(=O)NCC1CCCO1)c1ccc(F)cc1)c1ccco1 (stereo not drawn),0%
COc1ccc(OC)c(N(CC(=O)NC2CC2)S(=O)(=O)c2ccc(C)cc2)c1,-5%
Cc1cc([N+](=O)[O-])ccc1N,-2%

Next section.
Structure,HSD17B inh
COCCCNC(=O)CCc1nc(-c2ccccc2Cl)no1,17%
COC(=O)c1ccccc1NC(=O)CSc1nnc(C(CO)NC(=O)c2ccccc2)n1C (stereo not drawn),4%
CC(=O)N1CCCc2cc(S(=O)(=O)NCc3ccc(C)cc3)ccc21,6%
CO[C@H]1COC(=O)C/C=C\[C@@H](C)[C@H](OC)COC(=O)CCC[C@@H]1C,-1%[11.4 µM]
O=C(CCn1c(=S)[nH]c2cc3c(cc2c1=O)OCO3)NCCN1CCCC1,15%
Cc1nc2ccccc2c2oc(C(=O)N3CCc4ccccc43)cc12,-29%
COc1ccc(NC(=O)N2CCN(c3nc(-c4cccc(OC)c4)cs3)CC2)cc1,-5%
COc1ccc(C(=O)O)cc1NS(=O)(=O)c1cccc2nsnc12,11%
Cc1nc2c(c(=O)n1CCC(C)C)c1nc3ccccc3nc1n2Cc1ccc2c(c1)OCO2,6%
COc1ccccc1N1CCN(C(=O)C(C)N(c2ccc(C)cc2)S(C)(=O)=O)CC1 (stereo not drawn),4%

Next part
Structure,HSD17B inh
C/C=C/Cn1c(SCCCc2ccccc2)nc2c1c(=O)[nH]c(=O)n2C,-24%
CN1CCN(c2ncc3ncc(=O)n(CCC#N)c3n2)CC1,u
COc1ccccc1-n1c(C)nc(=O)c(-c2ccccc2)c1C,12%
CN(Cc1ccccc1)c1oc(-c2ccco2)nc1C#N,32µM*
CC1(C)N(O)CC(c2cccs2)=[N+]1[O-],1%
c1ccc(-n2ncc3c(NCc4ccco4)ncnc32)cc1,32µM*
Cc1ccc(-c2cc(C)nc3ncnn23)cc1,32µM*
COc1ccc(CNc2cc(-c3cccnc3)ncn2)c(OC)c1,8%
CCn1c(SCc2nc3ccccc3[nH]2)nnc1-c1ccncc1,14%
O=C(CSc1nnc(-c2cccnc2)n1Cc1ccco1)c1ccccc1,-1%

More results
Structure,HSD17B inh
CCOC(=O)C1CCCN(C(=O)CS(=O)(=O)Cc2ccccc2)C1 (stereo not drawn),2%
O=C(NC1CCCCC1)c1sc(=S)n2c1[nH]c(=O)c1ccccc12,13µM*
O=C(c1csnn1)N1CCC2(CCN(Cc3nccs3)CC2)CC1,-3%
O=c1c(-c2ccc(F)c(F)c2)nc2cncnc2n1Cc1ccc(F)cc1,-17%
CC(C)=NOC[C@@H](O)[C@@H]1O[C@@H]2OC(C)(C)O[C@@H]2[C@H]1O,2%[11.4 µM]
CCOC(=O)C1OC1c1ccccc1 (stereo not drawn),-2%
COC(=O)c1c(C(C)=O)cnc2ccc(Br)cc12,-5%
O=C(CN(Cc1ccco1)C(=O)CNS(=O)(=O)c1ccc(Cl)cc1)NC1CCCCC1,-2%
COc1ccc(C2C(C(N)=O)=C(C)Nc3ncnn32)cc1 (stereo not drawn),8%
COc1ccc(/C=C/N(CCc2ccc(OC)c(OC)c2)C(C)=O)cc1,8%[11.4 µM]

Going on with the list.
Structure,HSD17B inh
CC1=C(C(=O)OC2CCCCCCC2)C(c2ccc(O)cc2)NC(=O)N1 (stereo not drawn),16µM*
CN(CCc1ccccn1)c1ccc2c(c1)Cc1ccccc1-2,-16%[11.4 µM]
Cc1nn(CC(=O)NCc2ccccc2)c(=O)c2ccccc12,11%
C/C(N)=C(/C#N)C(=O)COC(=O)c1ccncc1,5%
CN(Cc1ccccc1)c1nc2c(c(=O)n(C)c(=O)n2C)n1CCCc1ccccc1,-13%
Cc1[nH]c(=O)[nH]c(=O)c1S(=O)(=O)N1CCCC(C(=O)N2CCN(c3ccccc3Cl)CC2)C1 (stereo not drawn),22%
CCOc1ccc(S(=O)(=O)N(CC(N)=O)c2ccc(C)cc2)cc1,-5%
CCOC(=O)CNC(=O)Cn1cnc2c(nnn2-c2cccc(Cl)c2)c1=O,-1%
Cc1nc2sccn2c(=O)c1CCN1CCC(=C(c2ccccc2)c2ccc(F)cc2)CC1,32µM*
CC1CCN(C(=O)C(Cc2ccccc2)n2cccc2)CC1 (stereo not drawn),-1%

The results go on.
Structure,HSD17B inh
COCC(=O)Nc1nnc(CCc2ccccc2)s1,16%
O=C(C1CCN(S(=O)(=O)c2ccc(F)cc2)CC1)N1CCOCC1,8%
COc1ccc(NC2=C(C(C)=O)C(c3ccc4c(c3)OCO4)C(C(C)=O)C(C)(O)C2)cc1 (stereo not drawn),-6%
C/C(NCCCn1ccnc1)=C(\C#N)C(N)=O,9%
Cc1cc(C)cc(CC2CC(=O)N(c3nc(C)cc(C)n3)C2=O)c1 (stereo not drawn),-2%
CC(C)COCC1CC2(CC(C)C(=O)CC2=O)C(=O)O1 (stereo not drawn),6%
O=C(O)CN(c1ccc2c(c1)OCCO2)S(=O)(=O)c1ccccc1,6%
COc1ccc(-c2c(C(F)(F)F)oc3c(CN4CCN(C)CC4)c(O)ccc3c2=O)cc1,-1%
CC(=O)c1c(C)[nH]c(C(=O)NC2=NCCS2)c1C,-2%
N#CC1=C2SCN(Cc3ccccc3)CN2C(=O)CC1c1ccc2c(c1)OCO2 (stereo not drawn),u

4 entries from above in another layout.
COc1ccc(C(=O)O)cc1NS(=O)(=O)c1cccc2nsnc12
  HSD17B inh = 11%
Cc1nc2c(c(=O)n1CCC(C)C)c1nc3ccccc3nc1n2Cc1ccc2c(c1)OCO2
  HSD17B inh = 6%
COc1ccccc1N1CCN(C(=O)C(C)N(c2ccc(C)cc2)S(C)(=O)=O)CC1 (stereo not drawn)
  HSD17B inh = 4%
C/C=C/Cn1c(SCCCc2ccccc2)nc2c1c(=O)[nH]c(=O)n2C
  HSD17B inh = -24%

Further structures
Structure,HSD17B inh
N#Cc1c(NC(=O)c2ccncc2)sc2c1CCC2,u
Cc1nnc(NC(=O)c2cccc(F)c2)s1,1%
CCOC(=O)N/N=C1/C[C@@H](O)[C@@H](O)[C@@H]2[C@@H]3C(=O)N(c4cccc(Oc5ccccc5)c4)C(=O)[C@H]3CC[C@@H]12,1%[11.4 µM]
c1ccc2c(CCNc3ncnc4nc[nH]c34)c[nH]c2c1,-7%
O=C(OCc1cc2ccccc2[nH]c1=O)c1ccncc1,31%[activator]
COc1ccccc1-n1cnnc1SC1CCOC1=O (stereo not drawn),-1%

Bioassay records: PubChem, National Center for Advancing Translational Sciences (NCATS)

These rows are one share of the data, so the mix of outcomes need not match the whole.
